Calb biofilm kill: clotrimazole potentiators killing C. albicans biofilm, primary screen, 4-compound mixtures; C. albicans biofilm persisters + clotrimazole, fluorescence viability; primary screen in compound mixtures of four per well; inhibition, % at 7.6 µM; 0.02% of 120,000 active;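 active = inhibition above 30.3% in the primary screen of four-compound pools, then above 30% when the compound was retested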;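 note: compounds exposed to preformed 24 h biofilms for 48 h; the number belongs to the whole pool; some results filed as inactive read as strong as hits; inactives centre near 12; 0% = biofilm with clotrimazole alone and 100% = kill control; retested singly at about 60 µM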
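Test system: C. albicans biofilms. Buffer or medium: RPMI/MOPS medium, pH 7.0. Timing: 48 h compound exposure at 37 °C. Technique: Alamar Blue fluorescence. Evaluation: percent inhibition of biofilm viability.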
Active calls of the source: *. Only part of the results is shown; count on the stated rates, not on these rows.

SMILES	Calb biofilm kill
COc1ccc(CN(C(=O)/C=C/c2ccco2)C2CCS(=O)(=O)C2)cc1 (stereo unspecified)	6.8
COc1ccc(NC(=O)CCC(=O)N(Cc2ccc(OC)c(OC)c2)c2nccs2)c(OC)c1	27.3
Cc1ccc(CSCC(=O)Nc2ccccc2F)cc1	2.6
O=C(Nc1cc(S(=O)(=O)N2CCOCC2)ccc1N1CCOCC1)C1CCCO1 (stereo unspecified)	0.2
Cc1c(C(=O)O)cccc1-n1c(C)cc(C=O)c1C	10.8
CSc1nc(N)c2c(C)c(C)sc2n1	21.3
CC(C)(C)c1ccccc1NC(=O)Cn1c(=O)cnc2ccccc21	18.7
COc1ccc(CNc2ccc(Br)cc2)cc1	6.9
N#CCCN(C(=S)NC(=O)c1ccco1)c1ccccc1F	8.8
CC(Cn1nnc2ccccc21)C(=O)O (stereo unspecified)	12.2
CN(C)CCNC(=S)Nc1ccccc1C(C)(C)C	10.3
O=c1[nH]n2c(C(F)(F)F)cc(C3CC3)nc2c1N=Nc1ccccc1	15.4
CCOC(=O)c1cnc2c(-c3cccc(Br)c3)cnn2c1C	2.7
S=c1nc(-c2cccc(Cl)c2)[nH][nH]1	6.9
CNC(=O)C1(C)C=CCN1C(=O)c1ccccc1 (stereo unspecified)	12.6
Cc1ccc(C(=O)OCC(=O)NC2CCCCC2)s1	15.5
CC(C)(CC(=O)O)CC(=O)Nc1ccccc1Oc1ccccc1	16.4
O=C(CSc1nc2ccc(Nc3nc(N4CCOCC4)nc(N4CCOCC4)n3)cc2s1)NCc1ccco1	16.1
CC(C)CCNC(=O)c1ccc2c(SCC(=O)O)c3c(nc2c1)CCCC3	10.9
CSc1cccc(NC(=S)N(CCCN2CCCC2)Cc2cccs2)c1	15.7
COc1cc(/C=C(\NC(C)=O)C(=O)Nc2ccc(NC(C)=O)cc2)ccc1OC(C)=O	10.8
O=C(COC(=O)Cc1n[nH]c(=O)c2ccccc12)Nc1ccc(Cl)cc1F	6.7
CCSC1=NN2CCS(=O)(=O)N=C2S1	23.5
Nn1c(Cc2ccccc2F)nnc1SCCOc1ccc(Cl)cc1	13.5
COc1ccc(OC)c(NC(=S)N2CCC(C(O)(c3ccccc3)c3ccccc3)CC2)c1	-8.9
O=C(CSc1nc(-c2ccco2)cc(C(F)(F)F)n1)N1CCCc2ccccc21	13.5
NS(=O)(=O)c1cccc(NC(=O)COC(=O)CC2CC3CCC2C3)c1 (stereo unspecified)	20.5
CCOc1cc(NC(=S)NCC2CCCO2)c(OCC)cc1NC(=O)c1cccc(F)c1 (stereo unspecified)	-2.3
CCOc1ccc(-n2c(=O)c3c(C)c(C(=O)N(C)C)sc3n(CC(=O)Nc3ccccc3F)c2=O)cc1	27.3
Cc1ccc(-c2nsc(SCC(=O)Nc3ccc4c(c3)OCO4)n2)cc1	-5.5
Cc1[nH]c2ccccc2c1/C=N/NC(=O)CNC(=O)c1ccc2c(c1)OCCO2	18.3
Cc1ccc(/C=N/N=C/c2ccc(C)cc2)cc1	8.1
O=C(CN1CCN(c2ccc(Cl)cc2)CC1)NCc1ccccc1	10.5
O=C(NCc1nc2ccccc2[nH]1)C1=C[C@@H](c2ccc3c(c2)OCO3)C[C@@H](OCc2ccc(CO)cc2)O1	18.7
CCOC(=O)c1ccc(N2CCOCC2)c(NC(=O)COCC(=O)O)c1	18.8
Cc1ccc(C)c(N2C(=O)c3cc(N4CCOCC4)c([N+](=O)[O-])cc3C2=O)c1	11.4
CCOC(=O)c1ccc(NC(=S)N2CCSC2c2ccc(Cl)cc2)cc1 (stereo unspecified)	23.1
Cc1cccc(NC(=S)N2CCOCC2)c1C	20.1
COc1cccc(/C=C/C(=O)OCC(=O)NCC2CCCO2)c1OC (stereo unspecified)	-2.4
N#Cc1c(N)nc2c(c1-c1ccncc1)CCCCC2	8.2
COc1cccc(C2=CC(c3ccc(OC)c(OC)c3)NC(=S)N2)c1 (stereo unspecified)	8.5
CN(C)C(=O)c1nc2ccc(Cl)cn2c1CNCc1ccccc1OC(F)(F)F	7.8
O=C(NC(Nc1nc2ccc([N+](=O)[O-])cc2s1)(C(F)(F)F)C(F)(F)F)c1cccnc1	41.0
Cc1sc2c(c1C)c(=O)n(-c1ccccc1)c(=O)n2CC(=O)NCC1CCCO1 (stereo unspecified)	26.3
Cc1cccc(N2CCN(Cc3cnc(Cl)s3)CC2C)c1 (stereo unspecified)	-10.3
CCOC(=O)c1ccc(NC(=O)c2cccc(C)c2[N+](=O)[O-])cc1	7.6
COc1ccc(-c2cc([C@H]3[C@@H]4C=CCC[C@@]4(C)C(=O)N3Cc3ccccc3)ccc2F)cc1OC	17.6
CCC(=O)Nc1c(S(=O)(=O)c2ccc(C)cc2)c2nc3ccccc3nc2n1C(C)c1ccccc1 (stereo unspecified)	6.2
COCCCNC(=O)CSc1ccsc1[N+](=O)[O-]	-3.0
C=CCn1c(SCc2nc3sc(C(=O)O)c(C)c3c(=O)[nH]2)nnc1-c1ccc(C(C)(C)C)cc1	19.4
O=C(NNc1ccccc1[N+](=O)[O-])Nc1ccc(Cl)c(Cl)c1	12.8
COc1ccc(C(=O)NCC2CCCO2)cc1OC (stereo unspecified)	22.0
N#C/C(=C\c1cccc([N+](=O)[O-])c1)C(=O)NCC1CCCO1 (stereo unspecified)	8.9
OCCC1CN(CCCn2cccn2)CCN1C1CCCCC1 (stereo unspecified)	34.2
CC(C)c1ccc(C2CC(c3ccc(Br)cc3)=NN2C(N)=S)cc1 (stereo unspecified)	5.1
CN1CCN(C(=O)C2CCC(C)(C(=O)O)C2(C)C)CC1 (stereo unspecified)	1.9
Cc1nn(-c2ccccc2)c(N2CCCC2)c1/C=N/NC(=O)c1ccccc1O	17.2
O=[N+]([O-])c1ccc(N2CCN(c3ccccc3F)CC2)c(S(=O)(=O)N2CCOCC2)c1	10.1
CC12CCC(C(=O)Nc3ccccc3Cl)([C@H](Br)C1=O)C2(C)C (stereo partly specified)	6.8
COCCNC(=O)/C(C#N)=C/c1cc(Br)c(O)c(OC)c1	8.0

Other entries
SMILES	Calb biofilm kill
O=C(C1CC1)N1CCc2[nH]c3ccccc3c2C1	4.6
COc1ccc(Cn2cccc(NC(=O)Nc3ccc(F)cc3)c2=O)cc1	5.1
Cc1cc(OC(=O)c2ccc3ccccc3c2)c([N+](=O)[O-])c(=O)[nH]1	12.2
Cc1ccc(N/N=C(/Sc2nnnn2-c2ccccc2)C(=O)c2ccccc2)cc1	4.6
O=c1[nH]n2c(=O)c3c([nH]c2c1N=Nc1cccc(Cl)c1)CCCC3	-7.2
CN(C)S(=O)(=O)c1cc(NC(=O)Cn2ccsc2=N)ccc1Cl	15.2
CCN(CC)C(=O)CSc1ncnc2c1cnn2-c1ccccc1	6.4
CCOC(=O)c1ccc(NC(=S)NCCCN2CCOCC2)cc1	14.3
COc1ccccc1N(C)S(=O)(=O)c1ccc(C(=O)Nc2ccc(N3CCOCC3)cc2)cc1	8.8
COc1ccc(/C=N/Nc2ncnc3c2[nH]c2ccc(C)cc23)c(OC)c1OC	-4.0
CN(C)CCCNC(=O)/C(=C\c1ccc(-c2ccc(Br)cc2)o1)NC(=O)c1ccccc1	8.8
COCCCN1C(=O)/C(=C/c2ccc(CNS(=O)(=O)c3ccccc3)o2)C(C(=O)OC)=C1C	21.3
COc1cc(/C=N/NC(=O)C2C3CCCCC32C)cc(Br)c1O (stereo unspecified)	21.6
O=C(Cn1nc(-c2ccc3c(c2)OCCO3)ccc1=O)Nc1ccc(-n2cnnn2)cc1	15.0
CCOC(=O)C(=O)Nc1cc(C)nn1-c1nc2ccccc2[nH]1	11.1
O=C(CCCn1c(SCc2ccccc2F)nc2ccccc2c1=O)NCC1CCCO1 (stereo unspecified)	2.3
Cc1nonc1C1CCCN1Cc1cn[nH]c1-c1ccc(-c2ccccc2)cc1 (stereo unspecified)	8.2
C#Cc1ccc([C@@H]2C=C(C(=O)NC3CC3)O[C@H](OCCCCO)C2)cc1	12.7
Cc1cccc(OCCNc2ccc(C(F)(F)F)cc2[N+](=O)[O-])c1	12.4
COCCN1C(=O)N[C@@H](c2cccs2)C(C(=O)OC)=C1C	6.5
CC(CNC(=O)COc1ccccc1)OC(=O)Nc1ccc(Cl)c(Cl)c1 (stereo unspecified)	-1.4
Cc1cccc(NCc2cc(Cl)ccc2O)n1	13.7
Cc1ccc(C2NC(=NCc3ccccc3)Nc3nc(C)cc(=O)n32)cc1 (stereo unspecified)	3.0
Cc1sc(NC(=O)CN(Cc2ccccc2)C(=O)C(C)C)c(C(N)=O)c1C	1.6
Clc1ccc(-n2nnnc2-c2cnc(-c3ccccn3)nc2-c2cccs2)cc1	9.9
COc1ccc(/C=N/NS(=O)(=O)c2ccc(NC(C)=O)cc2)cc1	24.3
C/C(O)=C/c1nc2ccccc2[nH]c1=O	18.1
COc1ccc(C(=O)NN/C(C)=C/C(=O)C(F)(F)C(F)(F)C(F)(F)F)cc1	17.2
COc1ccnc(-n2cccc2C=O)c1C#N	8.7
O=C(Cn1cnc2c(nnn2-c2ccc(F)cc2)c1=O)NCC1CCCO1 (stereo unspecified)	10.9
O=C(COC(=O)c1cccc(C(=O)OCC(=O)NC2CC2)n1)NC1CC1	6.8
CCOc1ncccc1C(=O)NCc1ccccc1Cl	7.6
Cc1ccc(S(=O)(=O)NNC(=O)C2COc3ccccc3O2)cc1C (stereo unspecified)	11.7
Cc1cc([N+](=O)[O-])nn1CC(=O)Nc1cccc2nonc12	23.6
Cn1ccc(C(=O)Nc2ccc(Br)cc2Br)n1	4.5
COCc1nnc(NC(=O)c2ccc(S(=O)(=O)N(CC(C)C)CC(C)C)cc2)o1	5.0
CCOC(=O)c1c(NC(=O)C2=C(C)NC(=S)NC2c2ccccc2C(F)(F)F)sc(C)c1C (stereo unspecified)	21.7
COC(=O)CCCC1=CC2=C(c3ccccc3)C(=O)C(C)(OC(=O)C3CCCC3)C(=O)C2=CN1CCc1ccccn1 (stereo unspecified)	14.7
CC(C)(C)NC(=O)/C(=C\C=C\c1ccccc1)NC(=O)c1ccc([N+](=O)[O-])cc1	17.0
COc1ccc(N2C(=O)CC(Sc3nc4ccccc4s3)C2=O)cc1 (stereo unspecified)	17.3
C/C(=N\O)c1sc(-c2ccccc2)nc1C	11.8
Cc1cc(C(=O)CCl)c(C)n1CC1COc2ccccc2O1 (stereo unspecified)	7.2
Cc1cccc(CN2CCN(Cc3nc4c(s3)CCCC4)CC2CCO)n1 (stereo unspecified)	9.4
CCO/N=C/C1=C(O)C(C(=O)OC)C(C)(C)CC1=O (stereo unspecified)	9.6
Cc1ccc(CN2CCS(=O)(=O)CC2)o1	11.8
COc1ccc(CCNC(=O)C(=O)NCC2CCNCC2)cc1OC	14.6
NN1C(=O)c2cccc3c(C(=O)O)ccc(c23)C1=O	15.8
CCn1cc(C(=O)O)c(=O)c2cc(F)c(N3CCN(C(=S)NC(=O)c4ccc(Br)cc4)CC3)cc21	-4.7
O=C(O)C1CCN(c2ccccc2[N+](=O)[O-])CC1	12.2
CCCCc1ccc(N=N/C(C(=O)Nc2ccccc2OC)=C(/C)O)cc1	10.5
O=C(NC1CCCc2ccccc21)C1CCN(S(=O)(=O)c2ccccc2F)CC1 (stereo unspecified)	9.9
CNCCCC12CCC(c3ccccc31)c1ccccc12	18.2
O=C(O)c1ccccc1Sc1c([N+](=O)[O-])cc(C(F)(F)F)cc1[N+](=O)[O-]	10.5
FC(c1nc2ccccc2[nH]1)C(F)(F)F (stereo unspecified)	25.3
CC(=O)N1CCN(c2ccc(NC(=O)/C=C/c3ccccc3)cc2)CC1	14.6
O=C(Cc1csc(NC(=O)c2ccc(F)cc2)n1)NO	8.8
O=C(CC(c1ccccc1)c1ccco1)Nc1nccs1 (stereo unspecified)	9.6
OC(CNCCc1ccc(Cl)cc1)COc1ccc2ccccc2c1 (stereo unspecified)	16.9
COc1ccc(CC(=O)N/N=C/C=C/c2ccc3c(c2)OCO3)cc1OC	8.9
CCN(CC)CCn1c(N)c(S(=O)(=O)c2ccccc2)c2nc3ccccc3nc21	14.0

Next section
SMILES	Calb biofilm kill
C=CCn1c(C)cc(C(=O)Cn2c(C(C)O)nc3ccccc32)c1C (stereo unspecified)	5.4
NC(N)=N/N=C/c1ccc2cccc(OCc3ccccc3)c2n1	4.2
O=C(Nc1ccc(S(=O)(=O)N2CCCCC2)cc1)C1CCCN(C(=O)c2ccc(Cl)cc2)C1 (stereo unspecified)	16.8
O=C(CN1CCCCCCC1)N/N=C/c1ccc(F)cc1F	11.7
CCC(C)(C(=O)Nc1c(C)cccc1C)N(C)C(=O)c1ccc2ccccc2n1 (stereo unspecified)	15.7
c1ccc(-n2c3ccccc3c3ccccc32)cc1	11.2
COCCN1C(=O)N[C@@H](c2ccc(Br)cc2)C(C(=O)OC)=C1C	15.5
CCc1nn2cc(C(=O)c3cc(Cl)ccc3O)cnc2c1-c1ccc(F)cc1	1.4

Among those listed so far, these contain two or more sulfur atoms.
SMILES	Calb biofilm kill
CSc1nc(N)c2c(C)c(C)sc2n1	21.3
O=C(CSc1nc2ccc(Nc3nc(N4CCOCC4)nc(N4CCOCC4)n3)cc2s1)NCc1ccco1	16.1
CSc1cccc(NC(=S)N(CCCN2CCCC2)Cc2cccs2)c1	15.7
CCSC1=NN2CCS(=O)(=O)N=C2S1	23.5
Cc1ccc(-c2nsc(SCC(=O)Nc3ccc4c(c3)OCO4)n2)cc1	-5.5
CCOC(=O)c1ccc(NC(=S)N2CCSC2c2ccc(Cl)cc2)cc1 (stereo unspecified)	23.1
COCCCNC(=O)CSc1ccsc1[N+](=O)[O-]	-3.0
C=CCn1c(SCc2nc3sc(C(=O)O)c(C)c3c(=O)[nH]2)nnc1-c1ccc(C(C)(C)C)cc1	19.4
CN(C)S(=O)(=O)c1cc(NC(=O)Cn2ccsc2=N)ccc1Cl	15.2
CCOC(=O)c1c(NC(=O)C2=C(C)NC(=S)NC2c2ccccc2C(F)(F)F)sc(C)c1C (stereo unspecified)	21.7
COc1ccc(N2C(=O)CC(Sc3nc4ccccc4s3)C2=O)cc1 (stereo unspecified)	17.3

Source: PubChem BioAssay
